Screens deposited in PubChem BioAssay by National Center for Advancing Translational Sciences (NCATS).
Sfp PPTase inh: blocks B. subtilis Sfp PPTase activity; Potency, µM, without a hit: max response, negative = inhibition, most hits filed as inhibitors; hit rate 3.5% among 310,000; Biochemical Sfp PPTase activity, qHTS; Q9F4F7; active = well fitted inhibition curve with a large enough effect; inconclusive = small, poorly fitted or top-dose-only effect, or another doubt; inactive = no such curve, though single readings can be large or run the other way;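 note: the enzyme is Sfp with the accession as filed and its product quenches rhodamine fluorescence; potency is the fitted concentration of half-maximal effect; 0% = enzyme reaction without inhibitor and -100% = no enzyme wells; top concentration of the series not given in the record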
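Reaction rates are the 30-min fluorescence difference (ex 525, em 598 nm) in wells containing 15 nM Sfp, 5 uM rhodamine-CoA and 12.5 uM BHQ-2-YbbR at pH 7.6 with 10 mM MgCl2.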
CtBP-E1A blk: inhibitors of CtBP/E1A interaction; AlphaScreen GST-E1A/His-CtBP binding, 1536-well; stronger effect = lower value; control for the full effect not named in the record; activity change, % (no concentration beside the values); hit rate 0.49% among 340,000; in the data active means activity change below about -65%; inconclusive means about -30% to -65%; inactive means above about -30%; note: % is set by controls: 0 for no effect and ±100 for the full control effect; compound concentration not given in the record
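Homogeneous bead-based format: GST-tagged E1A captured on glutathione donor beads, His-tagged CtBP on nickel acceptor beads; compounds precede bead addition by 2 h at 37 °C.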
TRPV1 potentiator: potentiators of human vanilloid receptor 1 (TRPV1); TRPV1-expressing cells, Fluo-8 calcium influx, capsaicin EC20 potentiation; host cell line not named in the record; control for the full effect not named in the record; potentiation, % at 8.33 µM; hit rate 0.02% among 320,000; active means potentiation above 80%; inconclusive means 30% to 80%; inactive means below 30%; note: 0% is about no effect
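TRPV1-expressing cells were cultured overnight at 35.5C and loaded with Fluo-8 calcium dye for 40 to 90 min at room temperature. After a 10 s baseline, compound was added and calcium influx was read kinetically for 3 min (ex 480/em 520 nm).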
Six1-Eya2 blk: Six1/Eya2 interaction inhibition; Q15475+O00167; AlphaScreen GST-Six1/His-Eya2 binding, biochemical; stronger effect = lower value; control for the full effect not named in the record; activity change, % (test concentration not listed); hit rate 0.56% among 360,000; in the data active = activity change below about -65%; inconclusive = about -30% to -65%; inactive = above about -30%; note: % is set by controls: 0 for no effect and ±100 for the full control effect; compound concentration not given in the record
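AlphaScreen luminescence read after one hour at 37 °C in darkness. Pin-transferred compounds met GST-Six1 and His-Eya2 protein (5X stock 250 nM/500 nM) plus glutathione donor and Ni-chelate acceptor beads (5X, 50 ug/mL).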
D2 ag: agonists of human D2 dopamine receptor (beta-arrestin); P14416; DiscoveRx PathHunter D2 beta-arrestin, luminescence, 90 min; 100% = 57 uM dopamine signal; hit rate 0.084% among 360,000; activation, % (concentration not given with the values); AID 624465; in the data active = activation above about 40%; inconclusive = about 15% to 40%; inactive = below about 15%; note: compound concentration not given in the record; the text of the record calls up to 30% inactive
Target sequence (P14416 whole entry, looked up): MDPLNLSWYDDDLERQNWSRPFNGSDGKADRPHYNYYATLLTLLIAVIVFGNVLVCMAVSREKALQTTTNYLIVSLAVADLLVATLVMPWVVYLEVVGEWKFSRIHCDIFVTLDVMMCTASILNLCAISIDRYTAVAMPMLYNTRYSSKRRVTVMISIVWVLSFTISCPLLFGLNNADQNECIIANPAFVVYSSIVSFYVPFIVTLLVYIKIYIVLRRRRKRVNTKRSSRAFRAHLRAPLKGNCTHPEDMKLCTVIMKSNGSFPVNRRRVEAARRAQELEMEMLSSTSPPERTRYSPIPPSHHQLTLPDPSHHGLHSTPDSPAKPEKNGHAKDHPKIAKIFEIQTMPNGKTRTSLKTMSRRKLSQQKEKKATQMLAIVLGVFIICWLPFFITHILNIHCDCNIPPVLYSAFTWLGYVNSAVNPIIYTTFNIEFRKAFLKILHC
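Agonist mode: compounds alone added to overnight-plated D2 PathHunter cells for 90 min at 37 C, with 57 uM final dopamine (EC100) defining full response. Beta-arrestin recruitment detected by chemiluminescent reagent, read after 1 h at ambient temperature.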
PINK1 expr mod: modulators of PINK1 expression | AID 624263 | Potency, µM (doses to about 76.6 µM), without a hit: at the highest dose activation (PINK1 increase), usual class: activators | hit rate 0.2% among 410,000 | PINK1 immunofluorescence, high-content cytometry, 24 h; active = well fitted activation curve with a large enough effect; inconclusive = small, poorly fitted or top-dose-only effect; inactive = flat fitted curve, though single readings scatter; cell line not stated here;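 note: potency is the fitted concentration of half-maximal effect; % of control where 0% means no effect; nearly all actives have a fitted effect of over 65% in size; a mitochondrial uncoupler was the plate control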
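Compound titrations (5 concentrations, 24 h) on a stable cell line; DMSO and CCCP controls. Endpoint: fixed-cell PINK1 immunofluorescence with mitochondrial, cell and nuclear markers, scanned by microplate cytometer.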
D2 PAM: human D2 receptor positive allosteric modulation; P14416; DiscoveRx D2 beta-arrestin cells, luminescence, 90 min; 100% = 57 uM dopamine signal; potentiation, % (test concentration not listed); hit rate 0.23% among 360,000; active = potentiation of 50% or more; inconclusive = 30% to 50%; inactive = 30% or less;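 note: compound concentration not given in the record; tested on top of an EC20 dose of dopamine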
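D2 cells co-treated with compound plus 50 nM dopamine (EC20) for 90 min at 37 deg C to detect potentiation. Beta-arrestin recruitment was read as enzyme-fragment luminescence after 1 h at ambient temperature. Full response was set by 57 uM dopamine.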
The depositor's hits bear a star; ? = inconclusive; · = not tested or not shown; [ ] = dose if it differs, or a comment. An unsorted share of the library; 3.7% or so of the library scored in one or more.

canonical_smiles	Sfp PPTase inh	CtBP-E1A blk	TRPV1 potentiator	Six1-Eya2 blk	D2 ag	PINK1 expr mod	D2 PAM
O=C(c1ccc(N2CCCS2(=O)=O)cc1)N1CCN(c2ccccc2)CC1	15.9%	1.4	1.8	0.1	7.5	2.9%	-1.2
CNC(=S)N/N=C/c1c(C)cccc1Cl	4.1%	-19.1	9.2	-9.6	-6.5	1.6%	-13.3
COc1ccc(S(=O)(=O)Nc2nc3ccccc3nc2Nc2cccc(C(=O)O)c2)cc1	16.0%	·	0.9	-15.8	-2.4	1.2%	-0.8
CCn1c(CCNC(=O)c2ccc(OC)cc2)nnc1SCC(=O)Nc1ccccc1F	16.1%	-18.4	16.9	-8.5	12.5	0.2%	-12.4
COc1cc(CC(=O)NCC2CCCCC2)cc(OC)c1OC	0.4%	2.5	-15.6	5.3	9.6	-1.9%	-4.7
CC[C@]12c3[nH]c4ccc(Cl)cc4c3CCN1C(=O)[C@@H](CC(=O)NCCCN(C)C)C[C@@H]2C(=O)N1CCN(C(=O)C2CC2)CC1	·	2.3	·	-1.3	-3.4	-0.6%	0.1
CC1CCCCC1NC(=O)NC(=O)COC(=O)c1nccnc1N (stereo not given)	·	-2.8	·	2.1	-1.7	0.0%	-8.0
O=C(N/C(=C\c1cccnc1)c1nc2ccccc2[nH]1)c1cccc(Br)c1	18.9%	-17.7	-3.1	3.3	-2.4	-1.5%	-36.4
COc1ccc(S(=O)(=O)CCC(=O)NCCc2cccc(C)c2)cc1	10.6%	2.2	-12.1	3.7	-0.8	-4.5%[38.3 µM]	1.6
COc1ccc(Cl)cc1NC(=O)CN(C)C(=O)c1sc2ccccc2c1Cl	·	-7.7	5.4	-3.5	12.0	2.7%	-1.8
CCCCNC(=O)C1c2ccccc2OCC(=O)N1CC(F)(F)F (stereo not given)	·	-22.3	·	1.5	·	1.0%	·
CCC(C)(C(=O)NC1CCCC1)N(C)C(=O)c1ccccn1 (stereo not given)	10.7%	-4.6	88.7*	14.8	2.8	0.8%	7.5
COc1ccc(N(CC(=O)NC2CC3CCC2C3)S(=O)(=O)c2ccccc2)cc1OC (stereo not given)	-7.3%	-0.7	5.3	-9.1	0.6	5.4%	-3.7
COc1cc(-n2nnnc2SCC(=O)N2CCN(c3ccc(F)cc3)CC2)c(OC)cc1Cl	19.7%	-1.2	-13.9	-20.6	6.2	-2.0%	11.5
COc1cc(Cl)ccc1OCc1cc(C(=O)N(C)CCc2c(C)n[nH]c2C)no1	11.4%	-6.0	-2.9	2.4	0.6	1.9%	-13.1
Cc1cc(C(=O)CN2C(=O)C(=O)N(C3CCCC3)C2=O)c(C)n1CCc1ccc(F)cc1	·	-6.8	7.5	-8.6	-0.7	2.2%	-2.8
CCOC(=O)C1(C)Oc2ccc(S(=O)(=O)CC)cc2NC1=O (stereo not given)	13.9%	-8.0	-2.4	8.8	-0.9	3.0%	4.3
CC(O)(c1ccc(Cl)cc1)C(c1ccccc1)c1ccccn1 (stereo not given)	·	11.6	·	-1.5	1.0	16.2%	-0.2
Cc1noc(C)c1-c1ccc(C(=O)NCC(C)C)c2occc12	·	-21.7	·	-6.6	-1.0	14.5%	-7.0
O=S1(=O)CC(N2CCN(Cc3ccccc3F)CC2)CN1Cc1cn(Cc2cccc(C(F)(F)F)c2)nn1 (stereo not given)	·	-14.0	·	1.7	·	-0.6%	·
CNC(=O)CSc1nnc(-c2ccccc2)n1C	14.9%	·	-7.2	1.3	-3.5	2.2%	-2.1
Cc1ccc(NC(=S)NCc2cccn2C)cc1	-5.4%	-14.8	-19.3	-13.5	0.2	2.8%[38.3 µM]	-6.1
O=C(O)c1ccc(N=Nc2c(O)[nH]c3cc(Cl)ccc23)cc1	-27.9%	-11.4	-0.2	-11.1	-1.2	0.3%	-5.2
S=C(NC1CCCCC1)NN(c1ccccc1)c1ccccc1	4.7%	-14.1	-7.6	-13.7	-1.2	8.4%	-19.4
N/C(=N\OC(=O)C1CCCCC1)c1cccc(Br)c1	3.3%	39.0	6.0	41.4	-5.1	7.7%	12.7

Part of the list above, showing only D2 ag, Six1-Eya2 blk and CtBP-E1A blk.
SMILES | D2 ag | Six1-Eya2 blk | CtBP-E1A blk
Cc1cc(C(=O)CN2C(=O)C(=O)N(C3CCCC3)C2=O)c(C)n1CCc1ccc(F)cc1 | -0.7 | -8.6 | -6.8
CCOC(=O)C1(C)Oc2ccc(S(=O)(=O)CC)cc2NC1=O (stereo not given) | -0.9 | 8.8 | -8.0

The list continues.
canonical_smiles	Sfp PPTase inh	CtBP-E1A blk	TRPV1 potentiator	Six1-Eya2 blk	D2 ag	PINK1 expr mod	D2 PAM
COc1ccc(S(=O)(=O)Nc2cc(C)nn2-c2ccccc2)cc1	8.5%	16.5	-0.9	2.6	-0.3	0.1%	-7.4
CCC(=O)Nc1ccc(S(=O)(=O)N2CCc3ccccc32)cc1	9.1%	-3.8	-4.1	-0.6	-3.8	4.7%	1.4
COc1cc(/C=N/Nc2ccccn2)cc(OC)c1O	35.5µM*	-4.8	23.6	-15.2	3.2	-0.4%	17.8
CCOC(=O)CCNC(=O)N1CCCC(Cc2ccccc2)(C(=O)OCC)C1 (stereo not given)	19.9%	-12.0	-20.8	12.4	-3.2	-0.7%	-4.6
CC(NC(=O)CCNC(=O)c1ccc(Br)cc1)c1ccc(-n2ccnc2)cc1 (stereo not given)	·	-2.4	-1.0	4.6	-7.5	0.9%	-26.4
c1ccc(-n2c(SCc3nc(-c4cccs4)no3)nnc2-c2ccco2)cc1	-9.8%	5.3	2.6	-12.6	1.1	·	4.9
CN1C2Cc3c(n(C)c4ccccc34)C1CC=C2CO (stereo not given)	·	5.0	-2.3	-0.8	-5.5	1.0%	-9.9
CN(Nc1cccc(Cl)c1)c1cccc(Cl)c1	·	-8.0	·	-2.2	7.4	7.3%	0.9
Cc1ccc(NC(=O)/C(C#N)=C/c2cn(CC(=O)NCc3ccco3)c3ccccc23)cc1C	-13.7%	6.0	-14.6	1.1	-1.3	0.9%	1.1
O=C(CSc1nnc2c(Cl)cc(Cl)cn12)N1CCOCC1	15.9%	40.4	1.0	21.7	-2.9	5.2%[38.3 µM]	-3.4
O=P(OC1CCCCC1)(OC1CCCCC1)C(O)c1ccccc1 (stereo not given)	9.8%	0.3	-7.2	2.1	-2.7	4.7%[38.3 µM]	-5.6
O=C(c1ccc(-n2cncn2)c([N+](=O)[O-])c1)N1CCN(S(=O)(=O)c2ccc(Cl)cc2)CC1	23.9%	4.7	-2.8	5.9	6.4	-1.1%	-17.5
Clc1cc(Sc2ccc(Br)cc2)nnc1-c1ccccc1	-15.8%	13.0	-0.7	8.7	-4.9	1.1%	-9.4
Cc1ccc(CNC(=O)CN(C(=O)N2CCN(C)CC2)S(=O)(=O)c2ccc(C)cc2)cc1	·	7.2	4.6	0.9	-1.4	1.3%	-0.1
Nc1nc(SCC(=O)c2cc(F)ccc2F)n[nH]1	0.2%	10.6	4.8	-4.7	-3.6	-0.1%	-10.1
CCCC(=O)OC(C(=O)Nc1cc(C(F)(F)F)ccc1Cl)c1ccccc1 (stereo not given)	19.2%	17.5	-12.7	29.3	-0.7	3.8%	-0.4
CCOC(=O)c1sc2nc(C3CC3)cc(-c3ccc(OC)cc3)c2c1N	19.0%	9.8	-1.5	14.5	-1.8	11.0%	-6.5
O=C(CSc1ccccc1C(=O)NCc1ccccc1)NC12CC3CC(CC(C3)C1)C2	8.9%	0.0	-4.3	15.1	-6.1	?	-12.7
CCn1c(SCC(N)=O)nnc1-c1ccco1	5.7%	-0.8	3.6	5.8	2.4	-2.7%	20.3
COC(=O)c1cccc(N2C(=O)C(Cl)=C(N3CCOCC3)C2=O)c1	-24.7%	0.3	-28.7	1.1	-0.8	0.1%	-7.0
Cc1cc(C(=O)Nn2cnnc2)cs1	-4.8%	4.6	6.9	0.0	-0.7	0.2%[38.3 µM]	-14.1
COc1ccc(C(=O)Nc2cccc(-c3ccc(N4CCOCC4)nn3)c2)cc1	·	-3.0	-34.9	-17.5	0.0	-0.2%	-11.8
CCOC(=O)c1ccc(NC(=O)CC2C(=O)N(c3ccc(F)cc3)C(=O)N2CCC(C)C)cc1 (stereo not given)	1.3%	0.4	-0.9	-1.7	1.1	-3.4%[38.3 µM]	-3.7
O=C(CN1C(=O)NC2(CCOc3ccccc32)C1=O)NCc1ccc(F)cc1 (stereo not given)	·	-18.2	-4.4	1.0	-1.0	0.9%	-0.7
COc1ccc(S(=O)(=O)N2CCC(C)CC2)cc1N(C)S(=O)(=O)c1ccccc1	5.8%	8.2	8.9	-1.2	-1.5	0.0%	-3.5

Sfp PPTase inh: what is marked active above
SMILES | Sfp PPTase inh | CtBP-E1A blk | Six1-Eya2 blk | D2 ag | PINK1 expr mod | D2 PAM
COc1cc(/C=N/Nc2ccccn2)cc(OC)c1O | 35.5µM* | -4.8 | -15.2 | 3.2 | -0.4% | 17.8

Going on with the list:
canonical_smiles	Sfp PPTase inh	CtBP-E1A blk	TRPV1 potentiator	Six1-Eya2 blk	D2 ag	PINK1 expr mod	D2 PAM
C=CCn1c(SCc2ccc3c(c2)OCO3)nc2scc(-c3ccco3)c2c1=O	-18.8%	3.2	5.1	-0.7	-1.2	-0.3%	-3.6
CC(C)Cc1cc(C(=O)Nc2cccc(O)c2)no1	13.4%	-16.4	-7.2	-0.6	-3.0	1.5%	-17.2
Cc1ccccc1N(CC(=O)NCCSCc1ccco1)S(C)(=O)=O	20µM*	8.7	6.1	-6.0	-2.1	·	6.6
Cn1c(SCC(=O)Nc2ccccc2)nnc1-c1ccc(NC(=O)CCc2ccccc2)cc1	24.9%	3.5	-2.1	-0.6	-2.1	?	-9.0
CC(C)(C)c1ccc(C(=O)N2CCN(C(=O)C3CCCCC3)CC2)cc1	8.0%	-3.3	-15.3	2.6	4.5	1.5%	7.9
